Source: PubChem BioAssay
KCNQ2 block = KCNQ2 potassium channel inhibitors, primary screen, cell-based, CHO-K1, FluxOR thallium flux, B-score (AID 2156) | 20 min; active compounds read low; only compounds with negative scores are shown here; some inactives read as strong as hits | B-score at 10 µM | 310,000 compounds, 1.1% hits;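 active means fluorescence ratio B-score at most minus 3 library SDs, with starting brightness B-score within 2 library SDs, cut at about -5.5 in these data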
Target sequence (O88943 whole entry, looked up): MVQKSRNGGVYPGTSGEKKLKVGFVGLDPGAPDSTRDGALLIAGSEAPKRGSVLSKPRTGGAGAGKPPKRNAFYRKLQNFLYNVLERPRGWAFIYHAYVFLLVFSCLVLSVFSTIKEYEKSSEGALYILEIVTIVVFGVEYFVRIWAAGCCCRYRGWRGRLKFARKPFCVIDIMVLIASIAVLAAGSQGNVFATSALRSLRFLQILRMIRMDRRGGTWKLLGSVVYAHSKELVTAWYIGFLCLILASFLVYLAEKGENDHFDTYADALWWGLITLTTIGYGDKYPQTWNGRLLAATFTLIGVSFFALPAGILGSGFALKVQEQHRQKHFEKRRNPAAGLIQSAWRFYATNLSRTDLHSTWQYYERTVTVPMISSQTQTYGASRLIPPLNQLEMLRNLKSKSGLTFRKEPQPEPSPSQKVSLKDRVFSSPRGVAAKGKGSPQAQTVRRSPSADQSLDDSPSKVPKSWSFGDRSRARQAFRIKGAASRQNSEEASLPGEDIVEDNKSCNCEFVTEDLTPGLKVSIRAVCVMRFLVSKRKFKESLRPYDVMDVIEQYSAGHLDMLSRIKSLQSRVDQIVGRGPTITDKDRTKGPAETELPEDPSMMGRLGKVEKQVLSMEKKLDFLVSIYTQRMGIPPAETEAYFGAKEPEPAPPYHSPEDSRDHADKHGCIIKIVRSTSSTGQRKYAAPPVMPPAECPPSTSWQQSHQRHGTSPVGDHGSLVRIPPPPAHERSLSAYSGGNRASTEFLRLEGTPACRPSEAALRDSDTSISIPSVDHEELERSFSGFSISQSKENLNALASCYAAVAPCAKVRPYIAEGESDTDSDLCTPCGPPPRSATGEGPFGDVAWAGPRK
KCNQ2 block baseline = second read-out of KCNQ2 block, no call of its own (marks repeat the call); B-score; measured here: initial fluorescence intensity artifact check;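 brightness before thallium and not channel activity; 0 = typical well and far values either way flag optical interference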
Active calls of the source: *; i = inactive.

Compound,KCNQ2 block,KCNQ2 block baseline
Cc1ccc(C(=O)NCCSc2ccc(Cl)cc2)cc1S(=O)(=O)Nc1ccccc1,i,2.6
O=C(NCCN1C(=O)S/C(=C\c2cccs2)C1=O)[C@H](Cc1ccccc1)N1C(=O)c2ccccc2C1=O,i,-0.11
CC1(C)C2CCC1(C)C(OC(=O)c1ccccc1C(=O)O)C2 (configuration not stated),i,-0.2
C=CCOC(=O)C1=C(C)OC(N)=C(C#N)C1c1ccc(OC)c(CSc2ccccn2)c1 (configuration not stated),i,-1.9
CCCc1nnc(NC(=O)CCC(=O)N2CCN(S(=O)(=O)c3ccc(C)cc3)CC2)s1,i,-0.09
COc1ccc(/C=C(/NC(=O)c2ccccc2)c2nc3ccc(Cl)cc3[nH]2)cc1OC,i,-2.2
Cc1ccc(C(=O)c2coc3c2C(=O)C(=O)c2ccccc2-3)cc1,i,-0.31
COCC(C)N=CC1=C(O)CC(C)(C)CC1=O (configuration not stated),i,-0.63
COc1ccc(N(C(=O)COc2ccc(C)cc2)S(=O)(=O)c2ccc(C)cc2)cc1,i,-1.1
Cc1ccc(C)c(-n2nnnc2SCC(=O)NNC(=O)c2ccco2)c1,i,-1
CCCN1CCN(C(=O)C2CCN(c3ncnc4c3nc3n4CCCCC3)CC2)CC1,i,-1.2
CCc1nn(CCCC(=O)NCc2ccc(OC(C)C)cc2)c(=O)c2cc3occc3n12,i,-0.35
CC(C)Nc1nc(-c2cccnc2)nc(-c2ccccc2)c1C#N,i,1.5
COc1ccc(-c2c(NC(=O)CC(C)C)n(C)c3ccccc3c2=O)cc1OC,i,-0.72
COc1ccccc1CNC(=S)Nc1ccc2nc(N3CCN(C)CC3)cc(C)c2c1,i,0.13
COc1ccc(N(CC(=O)Nc2ccccc2F)S(=O)(=O)c2ccc(C)c([N+](=O)[O-])c2)cc1,i,1.9
CCC1=C(OC(=O)N(CC)CC)N2C(=O)OC(=NCCc3c[nH]c4ccccc34)[C@]2(Cc2ccccc2)[C@H]2C1=CC[C@H]1C(=O)N(CC(=O)OC)C(=O)[C@H]12,i,-0.13
C=CCn1c(=O)c(C(=O)Nc2ccc(C)cn2)c(O)c2ccccc21,i,0.28
CNC(=O)c1c2c(nc3ccc(Br)cc13)CCCC2,i,1.4
Cc1c(Br)c([N+](=O)[O-])nn1CCCC(=O)NC(C)c1ccccc1 (configuration not stated),i,3.2
COc1ccc(/C=C/C(=O)N2CCCc3ccccc32)cc1,i,-0.01
Cc1ccc(-n2[nH]c(C)c(C=Nc3ccc(S(=O)(=O)N4CCOCC4)cc3)c2=O)c(C)c1,i,-1.2
Nc1nc(SCC(=O)N2CCOCC2)n[nH]1,i,-0.04
COc1ccc(C2CC(=O)N3CN(c4ccc(C)c(Cl)c4)CSC3=C2C#N)cc1OC (configuration not stated),i,1.6
CCOC(=O)c1c(NC(=O)C2c3ccccc3Oc3ccccc32)sc(C(C)=O)c1C,-5.7*,-1.5*
CCN(CC)Cc1c(C(=O)N/N=C/c2c(Cl)cccc2Cl)nnn1-c1nonc1N,i,0.75
CCCCCc1c(C)nc(N2CCN(Cc3ccc4c(c3)OCO4)CC2)[nH]c1=O,i,-0.21
CCc1nn(CC(=O)NC2CCN(Cc3ccccc3)CC2)c(=O)c2cc3cc(F)ccc3n12,i,0.69
CC1(C)CC(NC(=O)C2CCN(S(=O)(=O)c3ccc(F)cc3)CC2)CC(C)(C)N1,i,0.61
CC(=O)N1N=C(c2ccc(C)cc2)CC1c1ccco1 (configuration not stated),i,-2.3
COc1ccc(C(=O)N2CCN(c3nc4cc(C)ccc4cc3C#N)CC2)c(OC)c1,i,-2
O=C(Nc1ccccc1C(=O)Nc1cccnc1)c1ccccc1,i,1
Cc1ccc(C)c(COC(=O)CCN=C2NS(=O)(=O)c3ccccc32)c1,i,3
COc1cc(CCC(=O)N2CCN(c3ncccn3)CC2)cc(OC)c1OC,i,-2.5
N/C(=N\OCc1ccccc1)c1nonc1N,i,1.3
O=C1OC(c2ccc(F)cc2)=C/C1=C\c1ccc([N+](=O)[O-])o1,i,-1.1
O=C(NCCCN1CCCC1=O)C(=O)NCC1OCCCN1S(=O)(=O)c1cc(F)ccc1F (configuration not stated),i,-0.24
CCC(C)Sc1nnc(CSc2nc(C)cc(C)n2)n1C (configuration not stated),i,-0.3
c1ccc(Nc2ncnc3sccc23)cc1,i,-0.03
CCn1nnc(-c2ccccc2NC(=O)c2ccc(-n3cnnn3)cc2)n1,i,1.1
CCOc1ccc(NC(=O)CSc2ccccc2N)cc1,i,0.2
CCOc1ccc(N2C(=O)CC(Sc3nc(C)cc(C)n3)C2=O)cc1 (configuration not stated),i,0.29
COc1ccc(CN(C)C(=O)c2ccc3ccccc3n2)cc1F,i,2.7
Cc1nn(-c2ccccc2)c(C)c1C(=O)NCCc1ccccc1,i,0.38
Cc1ccc(-n2c(=O)c3c(n4cnnc24)-c2ccccc2CC32CCCCC2)cc1,i,0.18
CCC(C)NS(=O)(=O)c1ccc(S(=O)(=O)N(CCc2ccc(OC)c(OC)c2)Cc2cccs2)cc1 (configuration not stated),i,-0.03
COc1ccc(-c2cn3cc(Cl)ccc3n2)cc1OC,i,0.42
CCCS(=O)(=O)N1CCCC(C(=O)NCCCOCC)C1 (configuration not stated),i,1.2
COc1c([N+](=O)[O-])c(=O)oc2ccccc12,i,2.6
S=c1[nH]nc(-c2cc(-c3ccccc3)n[nH]2)n1/N=C/c1ccccc1,i,1.6

(next part)
SMILES | KCNQ2 block | KCNQ2 block baseline
CN(C)Cc1c(O)ccc2c1O/C(=C\C=C\c1ccccc1)C2=O | i | 19
CCCN1CCC(=O)N([C@H](CO)CC(C)C)CC1 | i | -0.2
COc1cc2c(cc1OC)C1(CCCC1)CNC2c1cccc([N+](=O)[O-])c1 (configuration not stated) | i | 0.78
COC(=O)C(NC(=O)c1ccc(F)cc1)(Nc1nc(C)cs1)C(F)(F)F (configuration not stated) | i | -1.4
O=C(/C=C/c1ccco1)N(Cc1ccc(F)cc1)C1CCS(=O)(=O)C1 (configuration not stated) | i | 0.47
O=C(Nc1ccnc(-c2cccnc2)n1)c1ccc(F)cc1 | i | 0.35
CN(C)CCCNS(=O)(=O)c1ccc(N2CCC(c3ccc(Cl)cc3)=N2)cc1 | -5.9* | 1.3*
COc1ccc(F)cc1S(=O)(=O)Nc1cccc(C(=O)O)c1 | i | -0.65
C=CCn1c(Sc2ccccc2)nc2c1c(=O)[nH]c(=O)n2C | i | -0.67
Cc1cc(=O)n2c(n1)NC(Nc1cccc(C)c1C)=NC2c1ccc(F)cc1 (configuration not stated) | i | 0.07
Cc1ccc2nc(SCc3cccc([N+](=O)[O-])c3)nc(C)c2c1 | i | 1.8
CNC(=O)c1cc(C(=O)c2ccc(Cl)cc2)c[nH]1 | i | 1.6
Cc1cc(OCC(=O)N2CCC(C(N)=O)CC2)c2c(C)c(C)c(=O)oc2c1 | i | 0.65
Cc1cc(C)c2cc(C#N)c(NCCOC(=O)c3ccccc3C)nc2c1 | i | 4.6
O=S(=O)(NCc1ccc2c(c1)OCO2)c1ccc(F)c(F)c1 | i | -1.3
COc1cc(C2c3c(oc4ccccc4c3=O)C(=O)N2c2nccs2)ccc1O (configuration not stated) | i | 0.79
O=C(Nc1ccc(-c2nc3cc(NC(=O)c4cccs4)ccc3o2)cc1)c1cccs1 | i | 0.26
CCC(C)[C@H]1COCCS(=O)(=O)N1Cc1ccc(C)cc1 (some centres not stated) | i | 0.12
N#CCOC(=O)[C@H](Cc1ccccc1)N1C(=O)c2ccccc2C1=O | i | -0.06
CC(=O)C1(C)OC(N)=C(C#N)C(c2ccccc2)C1(C#N)C#N (configuration not stated) | i | 0.77
O=C(O)CN=CC1=C(O)CC(c2ccccc2)CC1=O (configuration not stated) | i | 0.17
N#CCCN(C(=O)CN1C(=O)NC2(CCCC2)C1=O)c1ccccc1F | i | 0.13
O=C(CSc1nnc(NC(=O)C2CC2)s1)Nc1ccc(F)cc1F | i | 1.7
Cc1ccc2nc(-c3ccc(O)c(O)c3)cn2c1 | i | 0.62
COc1cccc(CN2CCNC(=O)C2CC(=O)NCCN2CCCCC2=O)c1 (configuration not stated) | i | 0.07
OCCC1CN(Cc2cccc3nccnc23)CCN1Cc1ccc(F)c(F)c1 (configuration not stated) | i | -0.23
CCOC(=O)NC(=O)c1cn(-c2ccc(OC)cc2)c(=O)[nH]c1=O | i | 1.4
CCOC(=O)N/N=C\c1ccc(OC(=O)c2ccco2)cc1 | i | -2.6
CCN(Cc1cnn(C)c1)Cc1nc(C(c2ccccc2)c2ccccc2)no1 | i | 1.1
COc1ccc(/C=N/NC(=O)COc2cccc3ccccc23)c(C(=O)O)c1OC | i | 0.92
O=[N+]([O-])c1ccc2c(c1)nc1n2CCSC1 | i | 2.3
N#Cc1cc2c(nc1SCc1ccccc1)CCCC2 | i | -0.57
C=CCn1c(CCNC(=O)c2cccs2)n[nH]c1=S | i | -0.55
COc1ccc(C(=O)c2coc3ccc(O)c(CN4CCCCC4)c23)cc1 | i | -0.08
O=C1CNC(=S)N1C(CO)c1ccccc1 (configuration not stated) | i | 1.1
COc1ccc(CCNC(=O)Cn2nc(C)n3nc(-c4ccccc4)cc3c2=O)cc1OC | i | 0.67
CCCc1cc(C(=O)Nc2ccc(Cl)cn2)cs1 | i | -0.3
O=C(Cc1ccc(-n2c(=O)c3ccccc3n(Cc3cccc([N+](=O)[O-])c3)c2=O)cc1)NCC1CCCO1 (configuration not stated) | i | 1
CC1CCN(C(=O)CSc2nc3c(cnn3-c3ccc(Cl)cc3)c(=O)[nH]2)CC1 | i | 0.73
CCN1C(=O)[C@@H]2[C@@H](c3ccc(-c4ccccc4)cc3)N3CCCC[C@@]3(C(=O)OC)[C@@H]2C1=O | i | 1.6
Cc1ccc(S(=O)(=O)N=C2SCCCS2)cc1 | i | 0.67
COc1ccc(OC)c(NC(=O)CS(=O)(=O)Cc2nc(-c3ccccc3C)oc2C)c1 | i | -0.14
CC1CCCC(NC(=O)c2ccc3c(c2)N(Cc2ccccc2)C(=O)CS3=O)C1C (configuration not stated) | i | -3
CC(=O)Nc1ccc(-c2nnc(SCc3ccccc3C#N)n2C)cc1 | i | -1.5
CCC(CC)c1nc(C#N)c(NCc2ccccc2)o1 | i | 0.5
Cc1ccc(Oc2nc(-c3ccccc3)ncc2S(=O)(=O)c2ccc(C)cc2)cc1 | i | 0.02
COc1cccc(N2CC(C(=O)Nc3nnc(SCC(=O)N4CCCC4)s3)CC2=O)c1 (configuration not stated) | i | 1.5
COc1cccc(CNC(=O)CCNC(=O)C2CCN(S(=O)(=O)c3ccc(F)cc3)CC2)c1 | i | 0.08
CCCNC(=O)/C=C/c1ccc(S(=O)(=O)Nc2ccccc2OC)cc1 | i | 0.34
CCOC(=O)C1(C)C=C(Nc2ccc(O)cc2)C(=O)N1c1ccc(O)cc1 (configuration not stated) | i | 0.95

The list continues.
SMILES | KCNQ2 block | KCNQ2 block baseline
Cc1cc(C)c(C(=O)CSc2nnc(N)s2)c(C)c1 | i | -0.31
CC(=O)N(CC(C)(C)CC=C(C)C)c1ccccc1 | i | 0.01
O=C(/C=C/c1cccc(Cl)c1)N1CCC(Cc2ccccc2)CC1 | -11* | -2.7*
Cc1onc(-c2c(F)cccc2Cl)c1C(=O)N1CCCc2ccccc21 | i | -0.07
CC(=O)c1c(C)[nH]c(C(=O)CSc2nnc(-c3cccs3)n2Cc2ccccc2)c1C | i | -0.54
C=CCC(O)(CCN1CCCCC1)c1ccccc1 (configuration not stated) | i | 0.69
O=C(N/N=C/c1ccc(Cl)c([N+](=O)[O-])c1)C1CC1 | i | -1.3
CCOC(=O)c1nn(-c2ccccc2)c(C#N)c1NC(=O)c1nn(CC)cc1Br | i | 2.3
COc1ccc(C(=O)NCC(O)COc2ccc(C(C)(C)C)cc2)cc1[N+](=O)[O-] (configuration not stated) | i | 0.5
COc1ccc(NC(=O)C2CCCN(S(=O)(=O)c3ccccc3)C2)c(OC)c1 (configuration not stated) | i | 0.04

Structures shown so far that have a Cl atom:
SMILES | KCNQ2 block | KCNQ2 block baseline
Cc1ccc(C(=O)NCCSc2ccc(Cl)cc2)cc1S(=O)(=O)Nc1ccccc1 | i | 2.6
COc1ccc(/C=C(/NC(=O)c2ccccc2)c2nc3ccc(Cl)cc3[nH]2)cc1OC | i | -2.2
COc1ccc(C2CC(=O)N3CN(c4ccc(C)c(Cl)c4)CSC3=C2C#N)cc1OC (configuration not stated) | i | 1.6
CCN(CC)Cc1c(C(=O)N/N=C/c2c(Cl)cccc2Cl)nnn1-c1nonc1N | i | 0.75
COc1ccc(-c2cn3cc(Cl)ccc3n2)cc1OC | i | 0.42
CN(C)CCCNS(=O)(=O)c1ccc(N2CCC(c3ccc(Cl)cc3)=N2)cc1 | -5.9* | 1.3*
CNC(=O)c1cc(C(=O)c2ccc(Cl)cc2)c[nH]1 | i | 1.6
CCCc1cc(C(=O)Nc2ccc(Cl)cn2)cs1 | i | -0.3
CC1CCN(C(=O)CSc2nc3c(cnn3-c3ccc(Cl)cc3)c(=O)[nH]2)CC1 | i | 0.73
O=C(/C=C/c1cccc(Cl)c1)N1CCC(Cc2ccccc2)CC1 | -11* | -2.7*
Cc1onc(-c2c(F)cccc2Cl)c1C(=O)N1CCCc2ccccc21 | i | -0.07
O=C(N/N=C/c1ccc(Cl)c([N+](=O)[O-])c1)C1CC1 | i | -1.3

The list is partial. The share of hits here may be higher or lower than overall.
